DUX4 txn inh – blocks DUX4-driven transcriptional activation. 37,000 compounds, 0.8% hits. AID 1224904. 293T-iDUX4 ZSCAN4-Gaussia luciferase reporter, 24 h; active compounds read low. activity change, negative = inhibition, % (concentration not given with the values);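 active = -10% or lower and over 25 points stronger than a control reporter; inconclusive = -10% or lower with a smaller gap; inactive = above -10%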;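 note: 0% = median of neutral control wells and -100% = median of positive control wells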
DUX4 txn inh difference – further read-out of DUX4 txn inh, marked with its call; Gaussia minus Italica difference, %; measured here: selective DUX4 reporter inhibition;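 worked out from the two reporters; negative = selective loss of the DUX4 reporter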
DUX4 txn inh control – also measured in DUX4 txn inh; calls as there; activity change, negative = inhibition, %; measured here: Italica tet-on control reporter;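 0 = neutral control and -100 = positive control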
* hit, by the source's call; ? = inconclusive; / = not tested or not shown.

DUX4 txn inh	DUX4 txn inh difference	DUX4 txn inh control	mol
-3.1	-4.6	1.5	CN(C)C(=O)c1ccc(-c2ccc([C@H]3[C@H](C#N)N(S(C)(=O)=O)[C@H]3CO)cc2)cc1
1.8	2.0	-0.2	COCC(=O)Nc1ccc2c(c1)C(=O)N(C)[C@H]1CC[C@@H](CC(=O)NC3Cc4ccccc4C3)O[C@@H]1CO2
9.2	12.5	-3.3	O=C(NCc1cc(F)cc(F)c1)[C@@H]1[C@@H](CO)[C@@H]2Cn3c(cccc3=O)[C@H]1N2
-2.3	0.4	-2.7	CCS(=O)(=O)Nc1ccc2c(c1)C(=O)N(C)[C@H]1CC[C@H](CC(=O)N3CCN(C)CC3)O[C@H]1CO2
1.4	-2.7	4.1	O=C(CCN1CCCCC1)N[C@@H]1CC[C@H](CCNC(=O)c2cc(Cl)cc(Cl)c2)O[C@@H]1CO
2.4	1.5	1.0	COc1cccc(S(=O)(=O)Nc2ccc3c(c2)[C@H]2C[C@@H](CC(=O)NCc4ccccc4F)O[C@@H](CO)[C@H]2O3)c1
-4.5	1.1	-5.7	O=C([C@@H]1[C@@H](CO)[C@@H]2Cn3c(cccc3=O)[C@@H]2N1CC1CCCC1)N1CCc2ccccc2C1
-2.2	-2.6	0.5	CCCN1[C@@H]2c3ccc(-c4cccc(C(=O)N(C)C)c4)c(=O)n3C[C@@H]2[C@@H](CO)[C@@H]1C(=O)NCCOC
4.8	7.4	-2.6	O=C(C[C@H]1CC[C@@H]2[C@H](COC[C@H](O)CN2Cc2nccs2)O1)N1CCC(Cc2ccccc2)CC1
0.7	2.7	-2.0	CCNC(=O)[C@@H]1[C@@H](CO)[C@@H]2Cn3c(ccc(/C=C/c4ccccc4)c3=O)[C@H]1N2CC
-1.3	-2.8	1.5	CN(C)CC(=O)N1[C@H](CO)[C@H](c2ccc(C#CC3CC3)cc2)[C@@H]1C#N
14.5	5.7	8.8	O=C(C[C@@H]1CC[C@@H]2[C@H](COC[C@@H](O)CN2C(=O)c2ccc(F)cc2)O1)NCCCN1CCOCC1
12.0	-5.1	17.1	COc1ccc(-c2ccc3c(c2)[C@@H]2[C@@H](CCN2C(=O)Cc2ccccn2)[C@H](CO)N3C)cc1
-2.3	-1.9	-0.4	C[C@@H]1CN([C@H](C)CO)C(=O)c2cc(Br)cnc2O[C@@H]1CN(C)CC1CC1
-5.0	-5.9	1.0	COc1ccc2c3c([nH]c2c1)[C@@H](CO)N(Cc1ccccc1F)CC31CN(C(=O)C2CCOCC2)C1
5.4	2.5	2.9	COc1ccc2c3c(n(C)c2c1)[C@H](CO)N(C(C)=O)CC31CCN(Cc2nccs2)CC1
-0.2	-5.9	5.7	C[C@@H]1CN([C@@H](C)CO)C(=O)c2ccccc2-c2ccccc2CO[C@@H]1CN(C)S(=O)(=O)Cc1ccccc1
?	/	/	C[C@H](CO)N1C[C@H](C)[C@H](CN(C)S(=O)(=O)c2ccc(F)cc2)OCc2ccccc2-c2c(n(C)c3ccccc23)C1=O
-5.6	-7.1	1.5	N#C[C@H]1[C@@H](c2ccccc2)[C@@H](CO)N1C(=O)Nc1cccc(F)c1
2.2	1.5	0.7	CCCC(=O)Nc1ccc2c(c1)C(=O)N(C)[C@H]1CC[C@@H](CC(=O)O)O[C@@H]1CO2
-1.4	-12.5	11.1	O=C(C[C@@H]1CC[C@@H]2[C@H](COC[C@@H](O)CN2C(=O)Nc2ccc(Cl)cc2)O1)N1CCCCC1
8.5	10.5	-2.0	C[C@H](CO)N1C[C@H](C)[C@@H](CN(C)S(=O)(=O)c2ccccc2C#N)OCc2cnnn2CCCC1=O
6.6	8.7	-2.2	Cc1noc(C)c1NC(=O)NCC[C@@H]1CC[C@H](NC(=O)Nc2cccc(Cl)c2)[C@@H](CO)O1
-6.7	-2.0	-4.7	COc1cccc(-c2ccc([C@@H]3[C@@H](CO)N(C(=O)C4CC4)C34CN(C(C)=O)C4)cc2)c1
0.1	-0.1	0.2	COCCNC(=O)C[C@H]1CC[C@H]2[C@@H](COc3ccc(NC(=O)Nc4cccc(F)c4)cc3C(=O)N2C)O1
?	/	/	CCC(=O)N(CC1CCC1)C[C@@H]1[C@@H](c2ccccc2)[C@H](CO)N1C(C)=O
9.7	13.3	-3.6	CO[C@@H](CN(C)C(=O)c1cnccn1)[C@H](C)CN([C@@H](C)CO)S(=O)(=O)c1ccc(F)cc1
6.1	-0.3	6.4	O=C(C[C@@H]1C=C[C@@H](NC(=O)Cc2cccnc2)[C@H](CO)O1)NCc1ccc2c(c1)OCO2
5.5	4.5	1.1	O=C(C[C@@H]1CC[C@H]2[C@@H](COC[C@@H](O)CN2C(=O)c2ccccc2)O1)N1CCOCC1
4.3	1.1	3.1	COCc1cn(CC[C@@H]2CC[C@H](NC(=O)c3ccc(F)cc3)[C@H](CO)O2)nn1

Profiles as entered above. Screens in order: DUX4 txn inh, DUX4 txn inh difference, DUX4 txn inh control
`COc1cccc(-c2ccc([C@@H]3[C@@H](CO)N(C(=O)C4CC4)C34CN(C(C)=O)C4)cc2)c1` is listed with -6.7, -2.0, -4.7
`C[C@H](CO)N1C[C@H](C)[C@H](CN(C)S(=O)(=O)c2ccc(F)cc2)OCc2ccccc2-c2c(n(C)c3ccccc23)C1=O` is listed with ?, /, /

Remaining list, next part:
DUX4 txn inh	DUX4 txn inh difference	DUX4 txn inh control	mol
-3.9	-1.2	-2.7	Cc1noc(C)c1NC(=O)Nc1ccc2c(c1)C(=O)N(C)[C@H]1CC[C@H](CC(=O)Nc3ccc4c(c3)CCCC4)O[C@@H]1CO2
-6.2	-0.7	-5.5	CC(C)[C@@H]1C/C=C\C[C@@H](c2ccc(F)cc2)NC(=O)[C@H](C)CC(=O)N1
0.1	2.7	-2.6	COCC(=O)N1CC2(C1)[C@@H](c1ccc(-c3ccccc3)cc1)[C@@H](CO)N2C(=O)COC
8.9	7.5	1.4	N#C[C@H]1[C@@H](c2ccccc2-c2ccccc2)[C@H](CO)N1C(=O)Cc1cccnc1
-2.1	1.4	-3.5	CO[C@@H]1CN(C)C(=O)c2cc(NC(=O)CC(F)(F)F)ccc2OC[C@H](C)N(C(C)=O)C[C@H]1C
12.0	10.7	1.4	CNC(=O)C[C@@H]1CC[C@H]2[C@@H](COC[C@H](O)CN2C(=O)Nc2ccc(Cl)c(Cl)c2)O1
4.8	-1.2	6.0	CC(C)CC#Cc1cnc2c(c1)C(=O)N([C@H](C)CO)C[C@H](C)[C@@H](CN(C)C(=O)c1cccnc1)O2
?	/	/	CC(C)CC#Cc1ccc([C@@H]2[C@H]3CN(C(=O)Cc4ccccc4)CC(=O)N3[C@H]2CO)cc1
?	/	/	CN1c2ccc(C#Cc3cccnc3)cc2[C@H]2[C@H](CCN2C(=O)C2CCCCC2)[C@H]1CO
-8.5	-18.9	10.4	CCCC#Cc1ccc([C@H]2[C@@H](CO)N3CCCCN(S(=O)(=O)c4ccccc4F)C[C@H]23)cc1
?	-10.6	10.8	O=C(c1ccc2c(c1)OCO2)N1C[C@@H]2N[C@H](C1)C2c1ccc(/C=C/c2ccccc2)cc1 (stereo partly specified)
-1.8	-0.8	-1.0	CCC(=O)N1[C@@H]2c3ccc(-c4ccc(F)cc4)c(=O)n3C[C@H]1[C@H](CO)[C@H]2C(=O)N(C)C
-3.4	-2.1	-1.2	COc1cccc(S(=O)(=O)Nc2ccc3c(c2)C(=O)N(C)C[C@@H](OC)[C@H](C)CN(C(=O)Cc2cccnc2)[C@H](C)CO3)c1
-4.4	11.3	-15.7	C[C@@H]1CN([C@H](C)CO)S(=O)(=O)c2ccc(-c3ccc(C(=O)N(C)C)cc3)cc2O[C@H]1CN(C)C(=O)Cc1ccccn1
-0.6	-0.6	0.0	O=C(Cc1ccccn1)N1[C@@H](CO)[C@@H]2c3ccccc3NC[C@@H]21
1.6	1.9	-0.2	O=C1CN(Cc2ccccc2)C[C@@H]2[C@@H](c3ccc(Br)cc3)[C@@H](CO)N12
8.1	5.3	2.8	COC(=O)C[C@H]1C[C@H]2c3cc(NS(=O)(=O)c4cccc(OC)c4)ccc3O[C@H]2[C@@H](CO)O1
9.4	1.2	8.2	CCCNC(=O)N1CC2(C1)[C@@H](c1ccccc1)[C@H](CO)N2Cc1ccc(F)cc1
-3.1	-2.9	-0.2	CO[C@H]1CC[C@@H]2CCOc3c(C#N)cccc3C(=O)N(C)C[C@@H](C)C(=O)N(C)C[C@H]1O2
2.0	2.8	-0.8	CO[C@@H]1CN(C)C(=O)c2cc(NS(C)(=O)=O)ccc2OC[C@H](C)N(Cc2nccs2)C[C@@H]1C
-3.3	-8.9	5.6	CCCNC(=O)[C@H]1[C@H](CO)[C@H]2Cn3c(ccc(-c4cccc(F)c4)c3=O)[C@H]2N1C(=O)CC
-9.6	-1.7	-7.9	COc1cccc(CN2CC3(CCN(C(=O)Nc4c(C)noc4C)CC3)c3c([nH]c4cc(OC)ccc34)[C@@H]2CO)c1
1.8	-1.4	3.2	CN1C(=O)c2cc(NC(=O)c3cc(F)cc(F)c3)ccc2OC[C@@H]2O[C@H](CC(=O)O)CC[C@H]21
-0.9	-2.6	1.7	CO[C@H](CN(C)C(=O)C1CCOCC1)[C@@H](C)CN([C@@H](C)CO)S(=O)(=O)c1ccccc1
0.3	2.0	-1.6	C[C@H]1CN([C@@H](C)CO)S(=O)(=O)c2ccc(C#CC(C)(C)O)cc2O[C@@H]1CN(C)Cc1ccc(F)cc1
-1.9	-1.5	-0.3	CCNC(=O)Nc1ccc2c(c1)C(=O)N(C)[C@@H]1CC[C@@H](CC(=O)NC3CCCCC3)O[C@H]1CO2
3.3	7.0	-3.7	CCCNC(=O)N1C[C@@H](O)COC[C@@H]2O[C@@H](CC(=O)N3CCCCC3)CC[C@H]21
-3.3	-8.7	5.4	OC[C@H]1[C@@H](c2ccc(-c3ccc(F)cc3)cc2)[C@H]2CN(Cc3ccncc3)CCCCN21
2.2	2.0	0.2	CO[C@H]1CN(C)C(=O)c2cc(NS(=O)(=O)CC(F)(F)F)ccc2OC[C@H](C)N(Cc2cccnc2)C[C@H]1C
?	/	/	O=C(C[C@@H]1CC[C@@H]2[C@H](COC[C@H](O)CN2C(=O)c2ccccc2F)O1)N1CCN(c2ccccc2)CC1
-0.4	0.9	-1.3	CN1C(=O)c2cc(NC(=O)Cc3ccccc3)ccc2OC[C@@H]2O[C@@H](CC(=O)NCC3CC3)CC[C@@H]21
5.6	8.3	-2.7	COc1cccc(S(=O)(=O)N[C@H]2CC[C@@H](CC(=O)NC3Cc4ccccc4C3)O[C@@H]2CO)c1
-6.2	-6.3	0.1	CO[C@@H]1CN(C)C(=O)c2cc(NC(=O)C3CCCCC3)ccc2OC[C@H](C)N(Cc2cccnc2)C[C@H]1C
-3.2	-1.3	-2.0	O=C(CN1CCOCC1)N[C@H]1CC[C@@H](CCNC(=O)Nc2cc(F)ccc2F)O[C@H]1CO
-5.7	-5.7	-0.1	CNC[C@@H]1Oc2ccc(NC(=O)CCC(F)(F)F)cc2C(=O)N([C@H](C)CO)C[C@H]1C
8.1	-2.7	10.8	COc1ccc2c3c(n(C)c2c1)[C@H](CO)N(C(=O)Cc1ccccc1)CC31CN(C(C)=O)C1
0.2	-1.8	2.0	C[C@H](NC(=O)C[C@H]1CC[C@@H]2[C@@H](COc3ccc(NS(=O)(=O)c4ccc(Cl)cc4)cc3C(=O)N2C)O1)c1ccccc1
0.0	1.0	-1.0	CC(C)NC(=O)N1C[C@@H]2[C@H](c3ccccc31)[C@@H](CO)N2C(=O)c1ccccc1F
4.2	-4.8	9.0	COc1ccc2c3c([nH]c2c1)[C@H](CO)NCC31CCN(S(=O)(=O)c2cccs2)CC1
-2.6	-0.8	-1.7	C[C@@H]1CN([C@@H](C)CO)C(=O)c2cc(NS(=O)(=O)c3ccccc3)ccc2O[C@@H](C)CCCCO[C@H]1CN(C)C(=O)C1CCCCC1
-0.5	1.6	-2.1	CN(C)C(=O)c1ccc(-c2ccc([C@H]3[C@H](C#N)N(C(=O)Cc4ccccn4)[C@H]3CO)cc2)cc1
?	/	/	COc1ccccc1C#Cc1ccc2c(c1)[C@H]1[C@H](CCN1C(=O)c1ccc(F)cc1)[C@@H](CO)N2
0.9	3.7	-2.8	O=C(C[C@@H]1CC[C@@H]2[C@H](COC[C@@H](O)CN2C(=O)c2ccncc2)O1)NCc1cccc(F)c1
5.0	1.1	3.9	COCC(=O)Nc1ccc2c(c1)[C@H]1C[C@@H](CC(=O)NCCc3ccccc3)O[C@H](CO)[C@H]1O2
-0.2	1.7	-1.9	Cc1nn(C)cc1NC(=O)C[C@@H]1CC[C@@H]2[C@@H](COc3ccc(NC(=O)Nc4cccc(Cl)c4)cc3C(=O)N2C)O1
?	/	/	OC[C@H]1[C@H](c2ccc(-c3ccc(F)cc3)cc2)[C@@H]2CN(CCC(F)(F)F)CCCCN12
-1.8	-0.8	-1.0	O=C(NC1CCCCC1)N[C@H]1CC[C@@H](CC(=O)N2CCOCC2)O[C@H]1CO
1.0	-3.3	4.3	CNC[C@H]1OCCCC[C@@H](C)Oc2ccc(NS(=O)(=O)c3cccs3)cc2C(=O)N([C@H](C)CO)C[C@@H]1C
3.0	0.1	2.8	COc1ccc(-c2ccc([C@@H]3[C@H](C#N)N(C(=O)c4cccc(F)c4)[C@H]3CO)cc2)cc1
3.2	-1.3	4.5	CCCNC(=O)N1[C@H](C#N)[C@H](c2ccc(C#Cc3ccc(F)cc3)cc2)[C@@H]1CO

Among those listed so far, four contain a CF3 group:
DUX4 txn inh	DUX4 txn inh difference	DUX4 txn inh control	mol
-2.1	1.4	-3.5	CO[C@@H]1CN(C)C(=O)c2cc(NC(=O)CC(F)(F)F)ccc2OC[C@H](C)N(C(C)=O)C[C@H]1C
2.2	2.0	0.2	CO[C@H]1CN(C)C(=O)c2cc(NS(=O)(=O)CC(F)(F)F)ccc2OC[C@H](C)N(Cc2cccnc2)C[C@H]1C
-5.7	-5.7	-0.1	CNC[C@@H]1Oc2ccc(NC(=O)CCC(F)(F)F)cc2C(=O)N([C@H](C)CO)C[C@H]1C
?	/	/	OC[C@H]1[C@H](c2ccc(-c3ccc(F)cc3)cc2)[C@@H]2CN(CCC(F)(F)F)CCCCN12

Not all compounds are listed; count on the stated rates, not on these rows.
